# Assay outcomes from PubChem.
# Arbovirus anti: arbovirus infection inhibition. inhibition, % at 10 µM. arbovirus infection cell-based antiviral screen. 0.37% of 200,000 active;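 active means inhibition from about 30%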;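 further: bluetongue infection of BSR cells; cell survival read as ATP light after 72 h; 0% = infected wells without compound and 100% = uninfected wells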
# RecA intein inh: blocks M. tuberculosis RecA intein splicing; P9WHJ3; cell-free RecA intein splicing, fluorescence; inhibition, %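 (about 9 µM by stock and volumes)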; 0.75% of 290,000 active; AID 2221; in the data active means inhibition above about 30%; inconclusive means no clear call, values can overlap the other calls;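 further: 0% = vehicle wells and 100% = reference inhibitor control wells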
# Target sequence (P9WHJ3 whole entry, looked up): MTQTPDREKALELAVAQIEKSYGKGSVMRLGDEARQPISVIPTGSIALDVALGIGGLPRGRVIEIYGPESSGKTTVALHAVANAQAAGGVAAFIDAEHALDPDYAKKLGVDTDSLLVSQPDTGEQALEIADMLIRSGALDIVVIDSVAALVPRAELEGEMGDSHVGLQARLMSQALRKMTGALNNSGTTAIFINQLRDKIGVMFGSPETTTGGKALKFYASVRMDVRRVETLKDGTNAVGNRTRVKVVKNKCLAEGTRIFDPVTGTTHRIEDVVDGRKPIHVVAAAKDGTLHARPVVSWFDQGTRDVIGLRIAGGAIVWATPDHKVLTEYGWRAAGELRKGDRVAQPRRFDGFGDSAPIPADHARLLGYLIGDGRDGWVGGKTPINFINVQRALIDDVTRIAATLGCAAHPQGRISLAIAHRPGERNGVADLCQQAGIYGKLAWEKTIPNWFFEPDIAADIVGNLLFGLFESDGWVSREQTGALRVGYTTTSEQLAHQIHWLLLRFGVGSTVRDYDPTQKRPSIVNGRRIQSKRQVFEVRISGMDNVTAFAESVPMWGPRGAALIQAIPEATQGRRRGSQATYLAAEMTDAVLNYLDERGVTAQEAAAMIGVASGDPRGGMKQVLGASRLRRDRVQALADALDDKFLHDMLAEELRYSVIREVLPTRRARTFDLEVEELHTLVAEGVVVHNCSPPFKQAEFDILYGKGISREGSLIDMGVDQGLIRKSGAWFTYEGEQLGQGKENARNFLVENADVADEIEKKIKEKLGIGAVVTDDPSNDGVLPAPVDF
# Mtb bLac sens: beta-lactam sensitization of Mtb H37Rv; AID 434955; 0.27% of 330,000 active; inhibition, % at 25 µM; M. tuberculosis H37Rv growth with meropenem, percent inhibition; hits of this screen are not shown here;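 active means about 74% or more and at least 40 points above the plate without the antibiotic, then above 30% in a dose series; inconclusive means first-round hits that could not be retested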;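 further: growth measured after seven days incubation then overnight dye step; 0% = bacteria only wells and 100% = bacteria with antibiotic; twin plates without the antibiotic show which effects depend on it; some results filed as inactive read as strong as hits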
# Mtb H37Rv: M. tuberculosis H37Rv growth inhibitors, H37Rv strain (AID 1626). one-dose inhibition, % at 10 µM; IC50 in µM for titrated hits. 0.95% of 220,000 active. M. tuberculosis H37Rv growth inhibition; higher % means a stronger effect;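 active means confirmed in a dose series; inconclusive means inhibition above 80% but not taken into the dose series; inactive means below 80% or under 30% at every dose of the series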;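 further: bacteria incubated seven days before Alamar blue readout; 0% = bacteria only wells and 100% = bacteria with antibiotic wells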
# YopH PTP inh: blocks Yersinia enterocolitica YopH tyrosine phosphatase; inhibition, %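 (about 10 µM by stock and volumes)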; fluorescence Ex485/Em525; 0.16% of 140,000 active;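 active means inhibition of 50% or more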;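 further: controls were vehicle for no effect and minimum signal wells for full effect; inactives centre near -20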
# Arbovirus anti repeat: further read-out of Arbovirus anti, marked with its call; inhibition, %; measured here: 10K subset replicate screen; many hits read low in the repeat;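 first of two repeat runs on a subset; 0% = infected and 100% = uninfected wells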
# * = called active by the depositor; ? = inconclusive; . = not tested or not shown.
# The opening 3 compounds, to show the layout:
SMILES,Arbovirus anti,RecA intein inh,Mtb bLac sens,Mtb H37Rv,YopH PTP inh,others
S=C(NCC1CCCO1)N1CCN(Cc2ccccc2Cl)CC1 (stereo not given),0,0.5,-3,-7%,.,
Cc1ccc(NC2CC(=O)N(c3cccc([N+](=O)[O-])c3)C2=O)cc1 (stereo not given),3,-1.7,-4,3%,.,
Cc1ccc2nc(-c3cccs3)oc(=O)c2c1,4,32*,4,4%,.,

# All compounds of this part, from the start:
SMILES,Arbovirus anti,RecA intein inh,Mtb bLac sens,Mtb H37Rv,YopH PTP inh,others
S=C(NCC1CCCO1)N1CCN(Cc2ccccc2Cl)CC1 (stereo not given),0,0.5,-3,-7%,.,
Cc1ccc(NC2CC(=O)N(c3cccc([N+](=O)[O-])c3)C2=O)cc1 (stereo not given),3,-1.7,-4,3%,.,
Cc1ccc2nc(-c3cccs3)oc(=O)c2c1,4,32*,4,4%,.,
NC(=O)C(CC(=O)O)NC(=O)[C@@H]1CCCCNc2c(I)cc([N+](=O)[O-])cc2C(=O)N[C@@H](CO)C(=O)NCC(=O)N1 (stereo not given in full),-8,.,.,-3%,-13,
CCC(=O)NC(=S)Nc1ccc(NC(=O)c2ccc(OC)cc2)cc1,-8,-2.6,2,-2%,3,
CN(C)CCSc1nc(N)c2c3c(sc2n1)CN(C)CC3,3,-2.9,-15,-12%,-9,
COc1ccccc1N1CCN(S(=O)(=O)CCNC(=O)C2CC(=O)N(c3ccccc3)C2)CC1 (stereo not given),.,1.2,-10,.,.,
CC1CCN(C(=O)CCNS(=O)(=O)c2ccccc2)CC1,7,1.7,-3,-10%,10,
CC(=O)C1=C(c2ccccc2)NC(=O)NC1c1ccccc1OCC(=O)NCc1ccccc1 (stereo not given),5,-0.9,-5,-2%,3,
C=CCn1cc(CN2CCC(C(=O)Nc3ccc(Oc4cccnc4)cc3)CC2)c(C)n1,.,-0.7,1,.,.,
CCOC(=O)C(C)Sc1nc(C2CC2)cc(C(F)(F)F)c1C#N (stereo not given),0,10.0,46,0%,-16,
COc1ccc(C2=NOC(Cn3nc(C(=O)NCc4ccc(OC(F)(F)F)cc4)cc3-c3ccccc3)C2)cc1 (stereo not given),.,-3.1,-3,.,.,
Cc1ccc(C(=O)N/C(=C\c2ccc3c(c2)OCO3)C(=O)Nc2ccc(C(=O)O)cc2)cc1,3,8.3,5,2%,.,
Nc1cccc([N+](=O)[O-])c1,5,-2.1,5,-5%,.,
CC(=O)Nc1nc(C(=O)O)cs1,15,-1.7,-5,9%,.,
CCCCn1c(SCC(=O)Nc2nnc(C)s2)nc2c1c(=O)n(C)c(=O)n2C,-1,-1.3,?,-14%,-36,
CCOc1ccc(NC(=O)CC2C(=O)N(c3ccccc3)C(=S)N2Cc2ccccn2)cc1 (stereo not given),2,4.2,-2,1%,-2,
CCCCc1cc(=O)oc2cc(OCc3nn[nH]n3)c(Cl)cc12,3,-14,4,-16%,-14,
O=C(O)C1CCCN1S(=O)(=O)c1ccc(Cl)cc1 (stereo not given),.,0.5,1,.,.,
O=c1/c(=C\c2ccc(F)cc2)sc2n1CCCN=2,1,.,-4,6%,.,
Cc1ccc(-n2cccn2)c(CN2CCC(CO)(CCc3ccccc3)CC2)c1,-13,-1.7,.,-6%,.,
Cc1cccc(N2CCN(C(=O)c3ccccn3)CC2C)c1 (stereo not given),18,-1.3,1,2%,.,
CCn1cc(C(=O)NCC2CCCO2)c2cc(OC)c(OC)cc2c1=O (stereo not given),0,5.9,-6,0%,-30,Arbovirus anti repeat=0
N#Cc1c(NC(=O)c2nc3ncccn3n2)sc2c1CCCCC2,2,-26,3,-4%,28,

# Copied from the listing (4 entries):
SMILES,Arbovirus anti,RecA intein inh,Mtb bLac sens,Mtb H37Rv,YopH PTP inh,others
CCOc1ccc(NC(=O)CC2C(=O)N(c3ccccc3)C(=S)N2Cc2ccccn2)cc1 (stereo not given),2,4.2,-2,1%,-2,
CCCCc1cc(=O)oc2cc(OCc3nn[nH]n3)c(Cl)cc12,3,-14,4,-16%,-14,
O=C(O)C1CCCN1S(=O)(=O)c1ccc(Cl)cc1 (stereo not given),.,0.5,1,.,.,
O=c1/c(=C\c2ccc(F)cc2)sc2n1CCCN=2,1,.,-4,6%,.,

# New compounds follow:
SMILES,Arbovirus anti,RecA intein inh,Mtb bLac sens,Mtb H37Rv,YopH PTP inh,others
O=C(Cn1ncc2c3ccccc3n(Cc3ccccc3F)c2c1=O)N1CCC2(CC1)OCCO2,2,-0.6,4,11%,-29,
Cc1ccc(-c2csc3ncnc(N4CCN(C)CC4)c23)cc1C,.,1.7,-1,.,.,
CCc1c(C)nc2cc(-c3ccccc3)[nH]n2c1=O,.,1.7,2,.,.,
Cc1ccc(NC(=O)COc2nsnc2N2CCOCC2)cc1Cl,.,1.8,4,.,.,
CC(C)c1cc(CNC(=O)C2CCC(=O)N(CCc3ccc(Cl)cc3)C2)on1 (stereo not given),.,0.5,-7,.,.,
O=C(CNCc1ccccc1)Nc1ccccc1-c1ccccc1,-8,2.6,4,-1%,-13,
CN(C)CCCn1c(-c2ccccc2)nc(=S)c2c1CCCC2,-1,-0.1,13,-2%,-34,
CC1=C(C(=O)Nc2cc(C(=O)N3CCN(c4cccc(C)c4)C(C)C3)ccc2C)SCCO1 (stereo not given),.,4.6,6,.,.,
O=C(N/C=N/O)C1=NOC(CNc2ncc(C(F)(F)F)cc2Cl)C1 (stereo not given),-1,-4.2,-1,-9%,-15,
Cc1cccc(C(=O)Nc2c(C#N)c(C)c(C)n2Cc2ccccc2)c1,-4,8.0,-9,5%,-35,
COc1cc(NC(=O)COC(=O)CC(C)(C)C)c(C)cc1[N+](=O)[O-],-13,2.0,2,4%,-29,
CC(=O)CCc1oc2ccccc2c1-c1ccccc1,.,5.2,7,11%,.,
COCc1cc(=O)[nH]c(SC)n1,.,7.4,-5,-10%,.,
Cc1oc(-c2cccs2)nc1CS(=O)CC(=O)NCc1ccc2c(c1)OCO2 (stereo not given),.,-2.1,-6,-12%,.,
O=P1(NC2CCCC2)COc2ccccc2OC1,8,-1.7,0,-8%,-27,
O=C(COc1ccccc1[N+](=O)[O-])Nc1ccc(CN2CCOCC2)cc1,4,-2.0,4,4%,.,
Cn1c(CNC(=O)Cc2ccc3c(c2)OCO3)nnc1SCc1ccccc1,0,0.2,-4,-2%,-7,
CC1CCN(c2oc(-c3ccc(F)cc3)nc2C#N)CC1,.,4.2,0,.,.,
Cc1cccc(N2CCN(C(=O)COc3cc4oc(=O)cc(C)c4cc3Cl)CC2)c1C,.,-2.0,5,.,.,
OCC[C@H]1C[C@H](O)[C@@H](O)[C@]2(CCCCO2)O1,.,0.2,-3,-13%,.,
Cc1ccc(OCC(=O)Nc2nc(-c3ccccn3)cs2)c(C)c1,.,3.8,91,.,.,
Cc1ccc(C)c(N(C)C(=O)c2coc(=O)c3ccccc23)c1,15,1.7,-4,0%,-1,
Cc1noc(C)c1CSc1nnc(-c2ccccc2F)n1CCc1ccccc1,-4,-0.1,5,8%,-35,
NC(CC(=O)O)c1ccc(Br)cc1 (stereo not given),-11,-4.9,-3,-8%,-5,
Cc1ccccc1N1CC(C(=O)N2CCc3ccccc32)CC1=O (stereo not given),.,0.8,-5,.,.,
COc1ccccc1C(=O)Nc1ccnn1C1CCN(C(=O)c2ccoc2C)CC1,.,-1.6,-7,.,.,
Cc1cc(S(=O)(=O)NCC(C)C)ccc1OCC(=O)NCC1CCCO1 (stereo not given),11,-1.0,-6,2%,-15,
O=C1CN(c2ccc(Cl)cc2)C2(CCCCC2)S1,-3,-0.2,-5,-5%,-32,
CN1CCN(C(=O)c2ccc3c(c2)NC(=O)C(N2CCOCC2)S3)CC1 (stereo not given),1,-0.2,-9,6%,-57,
O=C(O)CNc1nc(-c2ccccc2)c2cc([N+](=O)[O-])ccc2n1,-8,4.6,-8,-6%,-27,
CCCOc1ccc(C2/C(=C(\O)c3c(C)[nH]c(C(=O)OC)c3C)C(=O)C(=O)N2CCN(C)C)cc1 (stereo not given),-6,-0.4,57,1%,-11,
O=C1C2C3c4ccccc4C(c4ccccc43)C2C(=O)N1c1cccc2cccnc12 (stereo not given),0,-2.3,2,-2%,-41,
COC(=O)c1nn(-c2ccc(C)cc2)c2nnc(Cc3ccccc3)c(=O)n12,2,-5.2,2,0%,-33,
CC(C)CCOc1ccc(C2CC(=O)N(C)C2=O)cc1 (stereo not given),-9,.,-1,-3%,.,
CCOC(=O)CC(=O)CSc1nnc(Cn2c(=O)sc3ccccc32)n1C,5,1.5,-13,-9%,-49,
O=S(=O)(c1cc(F)ccc1F)N1CCC2(CC1)OCCN2S(=O)(=O)c1ccccc1,.,0.0,-4,.,.,
Nc1[nH]nc2nc3ccccc3cc12,11,-3.4,-6,-2%,.,
O=C(C1CCCN(S(=O)(=O)c2ccc(Br)s2)C1)N1CCCCCC1 (stereo not given),-5,0.5,-7,2%,-11,
CCc1nc(SCC(=O)Nc2ccc([N+](=O)[O-])cc2)n[nH]1,.,1.5,?,.,.,
O=C(c1ccc(-c2ccccc2Cl)o1)N1CCN(S(=O)(=O)c2cccs2)CC1,.,11,-8,.,.,
C=C(C)Cc1c(C)c(C#N)c2[nH]c3ccccc3n2c1=O,.,-0.9,99,.,.,
C/C(CC(=O)Nc1ccc2c(c1)OCCO2)=N\NC(=O)Cc1ccccc1,.,0.3,0,.,.,
COc1ccc(OC)c2c(C)cc(N3CCCCCC3)nc12,.,-0.7,-7,.,.,
Cc1cccc(C)c1NC(=S)N(C)CCc1ccccn1,3,-2.1,0,2%,-31,
Nc1c(-c2ccccc2)c(CSc2nc3ccccc3[nH]2)nn1-c1ccc(C(=O)O)cc1,-7,-0.1,15,11%,-33,
c1ccc(Cn2nnnc2-c2ccco2)cc1,-6,2.1,2,-12%,7,
Cc1cccc(-c2noc(-c3ccc(F)cc3)n2)c1,6,2.5,-6,-1%,-25,
COc1ccccc1N1CCN(S(=O)(=O)CCNC(=O)c2ccccc2Br)CC1,.,1.5,0,.,.,
CCO[C@@H]1OC(C(=O)O)=C[C@H](c2csc3ccccc23)[C@H]1CCCO,1,0.9,3,17%,.,
O=C1C2CC=CCC2C(=O)N1c1ccc(NCCc2ccc(Cl)cc2)c([N+](=O)[O-])c1 (stereo not given),-1,-1.5,30,11%,-32,
CCN(CCNC(=O)C1CCCN(c2ncnc3c2nc2n3CCCCC2)C1)Cc1ccccc1 (stereo not given),.,0.3,-1,.,.,
Cc1cc(Br)c(Cl)cc1NC(=O)CN1C(=O)C2C3CC(c4ccccc4)C(C3)C2C1=O (stereo not given),-37,19,84,52%,-17,
O=C(Nc1ccccc1F)n1ncc2cc(Cl)ccc21,.,0.9,-7,.,.,
CCC(C)NC(=O)CNC(=O)Cn1c(C)cc2ccccc2c1=O (stereo not given),-1,8.4,2,-4%,1,Arbovirus anti repeat=0
COc1ccc(/C=C/C(=O)NC(=S)NNC(=O)Cc2cccs2)cc1OC,-30,-0.8,1,-7%,-25,
CCC(N)C12CC3CC(CC(O)(C3)C1)C2 (stereo not given),9,0.0,-13,0%,-22,
CN(C)S(=O)(=O)N1CCN(c2cc(Cl)ccc2Cl)CC1,8,1.9,-7,8%,-18,
CNS(=O)(=O)c1cccc(C(=O)OCC(=O)N2CC(C)OC(C)C2)c1 (stereo not given),.,7.2,-1,.,.,
Cc1ccc(-n2nc(C(=O)NCc3ccc(C)o3)c3c4ccccc4n(C)c3c2=O)cc1,-14,-0.7,4,-5%,8,
O=C(N1CCN(c2ccccc2F)CC1)C12CC3CC(CC(C3)C1)C2,-17,7.2,-6,-8%,10,

# Continuation:
SMILES,Arbovirus anti,RecA intein inh,Mtb bLac sens,Mtb H37Rv,YopH PTP inh,others
CN1CCN(C(=O)Cc2ccccc2)CC1,.,.,-2,-15%,.,
COC(=O)c1cn(C(=O)c2ccccc2Cl)c2ccccc12,-9,-0.4,0,9%,.,
CC(C)C[C@H](NC(=O)[C@@H]1CCCN1C(=O)[C@@H](N)Cc1ccc(O)cc1)C(=O)NCC(N)=O,7,-1.6,2,0%,-59,
CC(=O)c1c(C)nc(-c2ccc(OCC(=O)Nc3ccccc3)cc2)n1O,0,0.6,35,12%,.,
O=C(CSc1nc2c(sc3ccccc32)c(=O)n1CCCN1CCCC1)NCc1ccco1,-20,3.3,-1,-6%,.,
CC(C)N1CN=C(Nc2nc3ccccc3o2)NC1,0,0.0,1,-8%,.,
CC(C)P(=O)(Cc1cccc(C#N)c1)C(C)C,7,0.7,-6,-2%,-32,
COc1cccc(C=O)c1OCCCOc1cccc2cccnc12,.,-0.6,10,.,.,
NC(=O)COc1ccc(C23CC4CC(CC(C4)C2)C3)cc1,-14,-0.4,92,?,.,
CCN(CC)C(=O)CC(c1cc(OC)c(OC)c(OC)c1)c1c(O)cc(OC)cc1OC (stereo not given),.,0.9,-5,-14%,.,
COc1cc(C(=O)N/N=C/c2coc3ccccc3c2=O)cc(OC)c1OC,.,4.1,10,.,.,

# An excerpt; rates above refer to the full screens.
